Screening data deposited in PubChem BioAssay by National Center for Advancing Translational Sciences (NCATS).
Rango dissoc inh – qHTS Assay for Inhibitors of RanGTP induced Rango (Ran-regulated importin-beta cargo) - Importin beta complex dissociation | Snurportin-1 (Homo sapiens) + GTP-binding nuclear protein Ran (Homo sapiens) + Importin … | Biochemical FRET Rango-importin beta, RanGTP-induced dissociation | Potency, µM (top dose mostly 46.1 µM), for the others: at the top dose activity change, negative = inhibition | actives 0.071% (n = 340,000) | AID 540253, 2011; active means falling FRET ratio curve, often poorly fitted, with flat reads before Ran was added; inconclusive means other falling curves, or compound fluorescence or quenching; inactive means flat or rising ratio curve;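 further: potency means the concentration at half of the fitted maximal effect; % of control where 0% means no effect; nearly all actives have a fitted effect of over 45% in size; -100% = wells without RanGTP and RCC1; the record marks most hits as doubtful in a second field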
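Two FRET readings bracket the reaction: one 5 min after compound meets Rango–importin beta, another 45 min after RanGTP-RCC1 (0.6 uM Ran, 0.2 uM RCC1, 2 mM GTP) is added. Only the second defines inhibition.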
GLA inh pH 4.5 – qHTS Assay for Inhibitors of Human alpha-Galactosidase at pH 4.5; Alpha-galactosidase A (Homo sapiens), P06280; purified enzyme, 4-MU-alpha-Gal fluorescence, pH 4.5; activity change, negative = inhibition, % at 105 µM; 230,000 tested, under 10 active; inconclusive = small, poorly fitted or top-dose-only inhibition, or a rising curve; inactive = flat fitted curve, though single readings scatter; no compound was filed as active;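 further: 0% = full activity with enzyme and -100% = basal without enzyme; dose as in the result columns while the protocol names 77 µM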
miR-21 reporter – qHTS Assay for Modulators of miRNAs and/orActivators of miR-21. 340,000 tested, under 10 active. HeLa miR-21 FLuc reporter, luciferase, 48 h. Potency, µM (top dose mostly 38.3 µM), for inactives: at the top dose reporter change, positive = more light. AID 2288, 2010; active = well fitted rising curve with a large enough effect; inconclusive = small, poorly fitted or top-dose-only effect; inactive = no such curve, though single readings can be large or run the other way;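 further: % of control where 0% means no effect; miR-21 action dims this reporter so a rising signal means less miR-21 action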
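HeLa cells endogenously expressing miR-21, stably carrying CMV-driven firefly luciferase with a downstream miR-21 binding site, 2000 cells/well. Titrations up to approximately 40 uM, 48 hours; luciferase luminescence read.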
Rango-impB inh – qHTS Assay for Inhibitors of Rango (Ran-regulated importin-beta cargo) - Importin beta complex formation; Potency, µM (titrated, usually from 92.2 µM), inactives show at the top dose inhibition of complex formation; actives 0.031% (n = 340,000); Importin subunit beta-1 (Homo sapiens), Q14974; Rango CFP/YFP FRET sensor + importin beta, 45 min; active = rising FRET ratio curve, often small or poorly fitted; inconclusive = mostly compound fluorescence or quenching in the first reads; inactive = flat curves in all reads;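 further: potency means the concentration at half of the fitted maximal effect; 0% = DMSO wells and 100% = buffer wells lacking importin beta; nearly all actives have a fitted effect of over 15% in size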
Target sequence (Q14974 whole entry, looked up): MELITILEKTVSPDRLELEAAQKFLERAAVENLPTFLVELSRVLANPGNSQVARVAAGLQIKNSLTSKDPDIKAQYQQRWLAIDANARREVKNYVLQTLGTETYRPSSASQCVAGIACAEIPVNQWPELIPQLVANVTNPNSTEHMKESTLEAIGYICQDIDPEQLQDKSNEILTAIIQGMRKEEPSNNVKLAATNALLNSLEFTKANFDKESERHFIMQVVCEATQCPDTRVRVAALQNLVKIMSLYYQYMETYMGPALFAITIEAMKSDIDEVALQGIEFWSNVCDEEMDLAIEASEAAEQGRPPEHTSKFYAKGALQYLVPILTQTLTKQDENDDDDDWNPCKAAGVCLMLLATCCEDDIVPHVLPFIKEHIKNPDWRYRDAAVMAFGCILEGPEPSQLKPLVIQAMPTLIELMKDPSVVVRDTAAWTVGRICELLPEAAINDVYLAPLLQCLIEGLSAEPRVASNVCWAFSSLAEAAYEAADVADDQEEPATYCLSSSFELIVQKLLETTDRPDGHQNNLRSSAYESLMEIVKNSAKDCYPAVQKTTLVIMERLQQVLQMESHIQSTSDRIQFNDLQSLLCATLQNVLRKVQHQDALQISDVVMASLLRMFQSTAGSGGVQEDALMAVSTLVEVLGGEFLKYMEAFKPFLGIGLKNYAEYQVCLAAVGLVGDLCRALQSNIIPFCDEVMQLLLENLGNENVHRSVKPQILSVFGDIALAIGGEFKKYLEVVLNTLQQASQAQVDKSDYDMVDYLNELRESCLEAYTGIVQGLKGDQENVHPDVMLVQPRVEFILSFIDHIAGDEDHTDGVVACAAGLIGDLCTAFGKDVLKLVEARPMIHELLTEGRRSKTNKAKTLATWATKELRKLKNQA
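FRET biosensor Rango (snurportin 1 IBB between N-terminal EYFP and C-terminal Cerulean), 50 nM in PBS/1 mM DTT/0.02% Tween-20/0.1% BSA, preincubated 5 min RT with compound; 0.125 microM importin beta added, 45 min RT, CFP/YFP FRET ratio read.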
* marks the source's active call; other numbers are inactive results; u = inconclusive; x = not tested or not shown; & = joins results of further samples. Only part of the results is shown. The share of hits here may be higher or lower than overall.

Preview (2 entries):
SMILES	Rango dissoc inh	GLA inh pH 4.5	miR-21 reporter	Rango-impB inh
O=C(c1ccc(OC2CCN(C/C=C/c3ccc(F)cc3)CC2)cc1)N1CCCC1	-6%	x	13%	-4.9%
CCOC(=O)c1ccc(-c2ccc3c(=O)c4ccccc4n(C)c3c2)cc1F	u	x	-15%	u

This part in full, repeating the preview:
SMILES	Rango dissoc inh	GLA inh pH 4.5	miR-21 reporter	Rango-impB inh
O=C(c1ccc(OC2CCN(C/C=C/c3ccc(F)cc3)CC2)cc1)N1CCCC1	-6%	x	13%	-4.9%
CCOC(=O)c1ccc(-c2ccc3c(=O)c4ccccc4n(C)c3c2)cc1F	u	x	-15%	u
O=C(O)c1ccccc1C(=O)OCCCCOC(=O)c1ccccc1C(=O)O	-2%	x	0%	-1.1%
O=C(Cn1cnc2c(nnn2-c2ccccc2)c1=O)NCc1ccc(F)cc1	10%	-9	0%	4.4%
COc1ccc(CN2C(=O)c3ccccc3C2C(=O)NC2CCCC2)c(OC)c1 (configuration not stated)	11%	5	-2%	3.2%
Cc1noc(C)c1S(=O)(=O)Nc1ccc(C(=O)Nc2ccc(OC(F)(F)F)cc2)cc1	16%	x	5%	-1.9%
CCc1nc(SCC(=O)NCCc2ccccc2)c2oc3ccccc3c2n1	1%	1	-1%	7.7%
COc1cc(C(=O)Nc2ccc3c(c2)CCN3C(C)=O)cc(OC)c1OC	-4%	0	7%	-0.8%
CCOC(=O)c1c(NC(=O)CSc2nnc(-c3ccncc3)n2Cc2ccco2)sc(C(C)=O)c1C	-17%	x	x	-3.9%
CCCn1ncc(CN2CCC(CO)(CC3CCCCO3)CC2)c1C (configuration not stated)	-6%	-4	-2%	-4.0%
O=C(Cc1cccs1)Nc1nc(-c2cccnc2)cs1	9%	1	7%	-0.1%
CCc1cc(=O)oc2cc(C)cc(OCC(=O)NCCCn3ccnc3)c12	13%	x	0%	0.7%
CC(C)(C)NCc1ccccc1OCc1cccs1	2%	0	0%	-1.5%
CS(=O)(=O)N(CCC#N)Cc1ccc(C=O)o1	4%	0	2%	-0.4%
O=C(O)c1cccc(NS(=O)(=O)c2cc(S(=O)(=O)c3ccc(Cl)cc3)ccc2Cl)c1	6%	x	-1%	0.4%
Cc1cc(NC(=O)CSc2nnnn2-c2cc(Cl)ccc2C)no1	12%	x	9%	u
O=c1cc(C(F)(F)F)[nH]c(=O)n1C1CCCCC1	-2%	3	-1%	3.1%
CCN(C(=O)COC(=O)c1cc(-c2ccc3cc(OC)ccc3c2)nc2ccccc12)C1CCS(=O)(=O)C1 (configuration not stated)	x	3	-30%	x
COC(=O)C1=C(C(=O)OC)[C@@H]2N(Cc3ccccc3)c3ccccc3[C@@]23C[C@@H](C(=O)OC)N(C(=O)c2ccc(Br)cc2)C3=N1	1%	-7	5%	u
c1ccc(CCn2nnnc2C(c2cccnc2)N2CCN(c3ccccc3)CC2)cc1 (configuration not stated)	9%	6	3%	-5.5%

Six compounds drawn at random from those above:
SMILES	Rango dissoc inh	GLA inh pH 4.5	miR-21 reporter	Rango-impB inh
COC(=O)C1=C(C(=O)OC)[C@@H]2N(Cc3ccccc3)c3ccccc3[C@@]23C[C@@H](C(=O)OC)N(C(=O)c2ccc(Br)cc2)C3=N1	1%	-7	5%	u
CCOC(=O)c1ccc(-c2ccc3c(=O)c4ccccc4n(C)c3c2)cc1F	u	x	-15%	u
c1ccc(CCn2nnnc2C(c2cccnc2)N2CCN(c3ccccc3)CC2)cc1 (configuration not stated)	9%	6	3%	-5.5%
Cc1noc(C)c1S(=O)(=O)Nc1ccc(C(=O)Nc2ccc(OC(F)(F)F)cc2)cc1	16%	x	5%	-1.9%
Cc1cc(NC(=O)CSc2nnnn2-c2cc(Cl)ccc2C)no1	12%	x	9%	u
O=C(O)c1cccc(NS(=O)(=O)c2cc(S(=O)(=O)c3ccc(Cl)cc3)ccc2Cl)c1	6%	x	-1%	0.4%

One compound at a time, from the list above:
Results for O=c1cc(C(F)(F)F)[nH]c(=O)n1C1CCCCC1 : Rango dissoc inh: -2%; GLA inh pH 4.5: 3; miR-21 reporter: -1%; Rango-impB inh: 3.1%
Results for O=C(Cn1cnc2c(nnn2-c2ccccc2)c1=O)NCc1ccc(F)cc1 : Rango dissoc inh: 10%; GLA inh pH 4.5: -9; miR-21 reporter: 0%; Rango-impB inh: 4.4%

Next section.
SMILES	Rango dissoc inh	GLA inh pH 4.5	miR-21 reporter	Rango-impB inh
c1ccc(SCCOCCN2CCc3ccccc3C2)cc1	0%	0	-7%	0.2%
O=C(OCC(=O)N1CCCC1=O)C1CCN(S(=O)(=O)c2ccc(Cl)c(C(F)(F)F)c2)CC1	-15%	x	x	5.2%
O=C(NCCc1ccc2c(c1)OCCO2)c1cccc(S(=O)(=O)N2CCCC2)c1	-8%	x	x	-1.7%
O=C(c1ccccc1[N+](=O)[O-])N1CCN(c2ccc(N3CCOCC3)nn2)CC1	18%	x	x	-5.1%
CN1C[C@@H]2C(c3ccccc3)C3(c4ccccc4)CC2(C3)[C@H]1c1ccccc1 (some centres not stated)	-4%	-12&1	-3%	-0.3%
Cn1c(=O)c2c(ncn2CC(=O)Nc2ccc(N3CCOCC3)cc2)n(C)c1=O	1%	5	-3%	1.6%
O=C(CCS(=O)(=O)c1ccccc1)Nc1nc(-c2cccs2)cs1	-5%	-4	14%	-1.9%
CCc1nnc(NC(=O)CSc2nc(C)cc(C)c2C#N)s1	u	-1	-4%	u
Cc1c(N2C(=O)/C(=C3/C(=O)N(C)c4ccccc43)SC2=S)c(=O)n(-c2ccccc2)n1C	0%	2	-2%	0.8%
COc1ccc(C(=O)Nc2ccccc2C(=O)N/N=C/c2ccccc2OC)cc1	-3%	-2	-20%	-3.2%
Cc1cccc(S(=O)(=O)Nc2cccc3c2C(=O)c2ccccc2-3)c1	u	-17	0%	u
Cc1ccc(S(=O)(=O)NCCC(=O)Nc2cc(S(=O)(=O)N(C)C)ccc2C)cc1C	18%	x	0%	4.7%
Cc1cc(=O)[nH]c(Nc2ccc(N(C)C)cc2)n1	8%	x	-2%	0.0%
COc1ccc(-c2sc3ccccc3c2/C=C/c2ccc(OC)c(OC)c2)cc1	-5%	x	x	0.8%
Cc1ccc(CN2CC(C(=O)N3CCN(S(=O)(=O)c4ccc(C(C)C)cc4)CC3)CC2=O)cc1 (configuration not stated)	3%	x	x	-2.5%
COC(=O)Cc1ccc(NC(=S)NCc2ccc(OC)cc2)cc1	7%	7	-14%	0.1%
CC(=O)N(/N=C1\Sc2ccccc2C1=O)c1ccc(C)cc1C	-4%	-7	-26%	-0.5%
CCc1ccc(OCc2nc(-c3ccccn3)no2)c(Br)c1	-4%	-19	-8%	0.2%
NCCOc1ccccc1OCCN	2%	x	0%	u
COc1cc(CN2CCCC(C(=O)c3ccccc3SC)C2)cc(OC)c1 (configuration not stated)	2%	-7	6%	-2.8%
Cc1ccc(/C=N/NC(=O)Cn2nc(C)c([N+](=O)[O-])c2C)o1	-5%	-2	-1%	-0.4%
CCOC(=O)c1ccc2c(c1)NCc1cccc(OC)c1O2	5%	-9	-65%	1.1%
COC(=O)CSc1nc2ccc(C)cc2cc1C#N	0%	2	-47%	0.9%
O=C(CSc1ccccn1)c1ccc(F)cc1	3%	4	-38%	-4.9%
CC1=CC(C)(C)N(C(=O)c2ccccc2)c2ccccc21	-2%	-2	-2%	4.9%
CN(C)N1C(N)=C(C#N)C(c2ccc(F)cc2)C2=C1CC(C)(C)CC2=O (configuration not stated)	-10%	x	7%	-0.8%
CN(C)Cc1nc2ccccc2c(=O)n1Cc1nc(-c2cc3ccccc3o2)cs1	-1%	-9	11%	-1.6%
CN1CCN(C(=O)CN(C2CCCCC2)S(=O)(=O)c2ccccc2)CC1	-6%	x	-1%	0.0%
CN1CCN(C(=O)c2cc3c(=O)n4ccccc4nc3s2)CC1	-17%	x	-29%	u
COc1cccc(-c2cccc(NC(=O)C3CCN(Cc4cccc(C)n4)CC3)c2)c1	u	x	-3%	-0.1%
CC(=O)c1cccc(N(C(=O)c2csnn2)C(C(=O)NC2CCCC2)c2ccccc2)c1 (configuration not stated)	u	x	0%	4.6%
O=C(NCc1ccccn1)c1nc(Cn2ccc([N+](=O)[O-])n2)no1	10%	x	0%	-3.7%
CN(C(=O)c1cccc(NC(=O)Cc2ccc(NC(=O)C3CCCN(S(=O)(=O)c4cccc([N+](=O)[O-])c4)C3)cc2)c1)C1CCCC1 (configuration not stated)	14%	x	x	0.5%
FC(F)(F)c1nnc(-c2ccccc2)nc1Oc1ccc(Cl)cc1Cl	12%	-2	3%	1.2%
Cc1cc(C=C(C#N)C#N)c(C)n1-c1ccccc1	6%	5	-21%	-0.1%
Cc1c(Cl)c([N+](=O)[O-])nn1CC(=O)N1CCN(Cc2ccccc2)CC1	-9%	0	1%	-1.6%
Cn1c(=O)c2c(nc(NCc3ccco3)n2CC(O)COc2ccccc2)n(C)c1=O (configuration not stated)	17%	2	-4%	0.3%
O=C(Nc1ccc(Cl)cn1)c1cccc2ccccc12	-18%	x	-1%	-1.6%
CN(C(=O)c1cccc(NC(=O)Cc2ccc(NC(=O)C3CCN(C(=O)C4CC4)CC3)cc2)c1)C1CC1	4%	x	x	0.3%
NC(=O)c1c(NC(=O)Cn2nc(C(=O)O)c3ccccc3c2=O)sc2c1CCCC2	-1%	3	5%	4.1%
O=S(=O)(NCc1ccc(Cl)cc1Cl)c1ccc(N2CCOCC2)nc1	-3%	-12	-31%	-0.1%
COc1ccc(C(=O)NCC(=O)OCCOc2ccc(Cl)cc2)cc1OC	15%	x	x	-5.4%
CC(=O)NNc1cc(N2CCOCC2)nc(N2CCOCC2)n1	u	5	-10%	u
CCOC(=O)c1cc(-c2ccc(C)o2)n[nH]1	3%	0	-3%	0.3%
COc1ccc(CCNS(=O)(=O)c2ccc3[nH]c(=O)[nH]c3c2)cc1	10%	x	x	-1.5%
Nn1c(-c2ccccc2)cc(-c2ccccc2)cc1=O	8%	x	x	4.3%
COCCn1nnnc1C(c1cc2cc(C)cc(C)c2[nH]c1=O)N1CCN(c2ccccc2F)CC1 (configuration not stated)	-9%	-6	-3%	2.7%
Cc1ccc(S(=O)(=O)N2CCCC2)cc1C(=O)NCc1ccccc1CN1CCCC1	-3%	x	x	-1.4%
Cc1ccc(-n2c(CCC(=O)O)ccc2-c2cccs2)cc1	-23%	2	-23%	u
COc1cc(-c2nn3c(-c4ccco4)nnc3s2)cc(OC)c1OC	x	4	-1%	x
C#Cc1cccc(-n2nnc(C(C)=O)c2C)c1	1%	2	3%	2.6%
COc1cccc(OC)c1OCCOc1ccccc1OC(C)C	16%	6	-4%	-1.0%
CC(C)c1ccc(OCC(=O)NCc2ccccc2)cc1	-2%	x	-8%	3.9%
COc1ccc(-c2noc(CCC(=O)N3CCN(c4ccccc4)CC3)n2)cc1	-12%	x	x	1.2%
O=C(COc1ccccc1)Nc1c(C(=O)N2CCC(N3CCCCC3)CC2)oc2ccccc12	5%	x	-2%	3.8%
COC(=O)c1ccc(CO/N=C/c2cccc([N+](=O)[O-])c2)cc1	-4%	x	1%	2.1%
CCCCn1nc(C(=O)N2CCN(S(=O)(=O)c3ccccc3)CC2)c2ccccc2c1=O	11%	x	x	0.4%
CCS(=O)(=O)N1CCN(c2ccc(S(=O)(=O)N3CCOCC3)cc2)CC1	3%	-6	4%	0.0%
OC(COc1cccc(OCC(O)CN2CCCC2)c1)CN1CCCC1 (configuration not stated)	23%	-20	-6%	0.7%
Cc1cccc(C(=O)Nc2cccc3cccnc23)c1	-10%	x	-46%	2.3%
CCOCCCNC(=O)CNC(=S)N(Cc1ccc(C)cc1)Cc1ccco1	3%	-3	4%	2.9%
CCn1c(SCC(=O)Nc2ccc(N(C)C)cc2)nnc1-c1ccco1	7%	x	0%	-0.4%
